# LANA-H2B inh: blocks KSHV LANA binding to histone H2A/H2B. Q9QR71. cell-free LANA-H2A/H2B peptide, fluorescence polarization. inhibition, % (concentration not given with the values). 320,000 tested, 0.6% active; in the data active = inhibition mostly above about 10%, no sharp cut-off; inactive = mostly below about 6.7%;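 note: stock transfer was 7.5 nL into about 10 µL; 0% = median of vehicle wells and 100% = median of positive control wells; one replicate is shown; the record names a cut of 25% in any replicate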
# HNF4A DNA FP: change in binding of human HNF4 alpha to DNA. HNF4a-FITC DNA binding, fluorescence polarization, 1 h. activity change, % at 10 µM. 360,000 tested, 0.3% active. AID 1224865; in the data active = activity change above about 30%, passing the limit was not always enough;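 note: controls were the assay level and a saturating level of protein; the project sought stronger binding though the title names inhibitors; some compounds called inactive have numbers as strong as hits; positive values seem to mean higher polarization but the record does not say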
# Target sequence (P41235 whole entry, looked up): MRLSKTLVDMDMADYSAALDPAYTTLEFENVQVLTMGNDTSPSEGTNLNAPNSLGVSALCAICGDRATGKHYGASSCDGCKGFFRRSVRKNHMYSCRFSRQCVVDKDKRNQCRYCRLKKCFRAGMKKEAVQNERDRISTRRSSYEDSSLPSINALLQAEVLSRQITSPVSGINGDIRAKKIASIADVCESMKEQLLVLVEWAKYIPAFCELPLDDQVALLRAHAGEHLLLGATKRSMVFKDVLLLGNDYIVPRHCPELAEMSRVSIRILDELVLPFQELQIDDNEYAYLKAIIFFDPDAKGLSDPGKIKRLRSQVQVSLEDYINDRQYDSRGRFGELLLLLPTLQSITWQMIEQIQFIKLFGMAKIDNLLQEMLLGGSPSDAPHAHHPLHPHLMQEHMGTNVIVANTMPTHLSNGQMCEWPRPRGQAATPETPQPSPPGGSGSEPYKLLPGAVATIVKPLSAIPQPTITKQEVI
# ALR H2O2 inh: human ALR oxidase inhibition via reduced H2O2; P55789; purified ALR, DTT oxidation, H2O2 HRP-luminol luminescence; inhibition, % (concentration not given with the values); 290,000 tested, 3.8% active; AID 485317;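 active = mean and each replicate at 75% or more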;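 note: stock transfer was 7.5 nL into about 7.5 µL; 0% = neutral wells and 100% = wells with inactivated enzyme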
# Target sequence (P55789 whole entry, looked up): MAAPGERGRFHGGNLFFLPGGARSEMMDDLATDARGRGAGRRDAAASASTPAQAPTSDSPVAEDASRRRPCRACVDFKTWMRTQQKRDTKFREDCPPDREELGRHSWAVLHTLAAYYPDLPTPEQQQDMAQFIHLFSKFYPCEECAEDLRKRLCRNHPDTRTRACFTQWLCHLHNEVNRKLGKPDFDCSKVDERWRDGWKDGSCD
# FGF22 binding: shifts melting point of recombinant human FGF22 | recombinant FGF22 thermal shift, SYPRO orange fluorescence; percent of sucrose octasulfate shift, DMSO zero | calls only at 9.99 µM | 340,000 tested, 1.5% active | AID 651658;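 active = melting point raised past a set limit in the mean and every replicate; three in four hits are not shown here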
# UCH37 DUB inh: human UCH37 deubiquitinating enzyme inhibition | Q9Y5K5 | purified proteasome/UCH37, Ub-AMC cleavage fluorescence | inhibition, % (test concentration not listed) | 330,000 tested, 0.33% active | AID 588478;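 active = mean of two replicates above 20%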;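 note: 0% = compound-free wells with enzyme and 100% = wells lacking proteasome; stock transfer was 100 nL into about 20 µL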
#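 System: Proteasome-associated human UCH37 deubiquitinase; Input: 0.15 nM proteasome in added enzyme buffer; Also added: Ub-AMC substrate from 1 µM stock; Incubation: 30 min compound-proteasome preincubation then 25 min substrate reaction, room temperature; Detection: fluorescence, ex 355 nm, em 460 nm; Read-out: % inhibition of Ub-AMC cleavage fluorescence; Benchmarks: no-proteasome and no-compound wells.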
# B2AR ag: activates human beta-2 adrenergic receptor causing internalization | response, % (no concentration beside the values) | 340,000 tested, 0.43% active | P07550 | AID 504454 | Am2.2-beta2AR cells, FAP receptor internalization, flow cytometry; reference of the scale not given here;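 active = response above a set limit, near 3 SD of response in nonfluorescent compounds, cut at about 42% in these data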;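 note: stock transfer was 100 nL into about 11 µL; a reference agonist was the positive control; negative values mostly stem from fluorescent compounds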
# Target sequence (P07550 whole entry, looked up): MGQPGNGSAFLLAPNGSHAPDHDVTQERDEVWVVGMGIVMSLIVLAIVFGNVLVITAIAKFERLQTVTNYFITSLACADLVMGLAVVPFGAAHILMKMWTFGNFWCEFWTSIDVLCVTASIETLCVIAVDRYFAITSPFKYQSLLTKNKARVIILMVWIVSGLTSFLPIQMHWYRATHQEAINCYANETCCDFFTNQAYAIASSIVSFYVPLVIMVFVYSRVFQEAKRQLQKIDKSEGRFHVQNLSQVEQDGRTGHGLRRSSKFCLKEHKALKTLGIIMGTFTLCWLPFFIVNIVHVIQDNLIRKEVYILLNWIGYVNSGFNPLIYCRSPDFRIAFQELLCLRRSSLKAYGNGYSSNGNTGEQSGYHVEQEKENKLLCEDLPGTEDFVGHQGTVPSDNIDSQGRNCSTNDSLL
# Ecoli growth: E. coli growth inhibition | Escherichia coli growth, OD600, 23 h; hits give low values | OD600 absorbance (concentration not given with the values) | 330,000 tested, 0.21% active | AID 1053175;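 active = OD600 absorbance below the run mean of sample wells minus 3.6 SD, in any replicate, cut at about 0.56 in these data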;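 note: stock transfer was 300 nL into about 60 µL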
# Active calls of the source: *; i = inactive; nt = not tested or not shown; + = active, no number.
SMILES,LANA-H2B inh,HNF4A DNA FP,ALR H2O2 inh,FGF22 binding,UCH37 DUB inh,B2AR ag,Ecoli growth
CCOC(=O)CC(=O)CSc1nnc2sc3ccccc3n12,-3.7,2.7,3.0,nt,3.8,6.8,0.685
COc1cc(/C=C/C(=O)c2ccc(NS(=O)(=O)c3ccc(C)cc3)cc2)cc(OC)c1O,2.4,0.2,16.4,nt,-5.3,-15.4,0.687
N=C1/C(=C/c2ccc(OCc3ccccc3F)cc2)C(=O)N=C2SC(CC(=O)N3CCOCC3)=NN12,4.9,1.7,23.3,i,nt,5.2,nt
COC(=O)c1ccc(SCC(=O)NC2CCCCC2)c([N+](=O)[O-])c1,-2.6,0.1,-20.3,nt,-2.4,-6.1,0.681
C=CCOc1cccc(/C=N/NC(=O)C(OC)c2ccccc2)c1 (centres undefined),-0.4,0.2,4.1,i,nt,-7.3,nt
CCOc1ccc(NC(=O)COC(=O)Cc2ccsc2)cc1,-0.2,0.6,-10.3,i,2.6,-2.7,0.702
CC(/C=C/c1ccccc1)=N\Nc1ccccc1[N+](=O)[O-],2.8,-1.9,-8.0,i,nt,2.6,nt
O=C(NCc1nc2ccccc2[nH]1)C1=C[C@H](c2csc3ccccc23)C[C@H](OCc2ccc(CO)cc2)O1,4.7,4.0,-0.3,i,5.1,4.8,nt
CC(=O)Oc1ccc2nc(/C=C/c3ccc(C=O)cc3)oc(=O)c2c1,1.6,-1.6,39.2,i,-14.9,10.5,0.711
O=C1NC(=O)/C(=C/c2ccccc2Oc2ccc(Cl)cc2)S1,3.6,0.9,-7.6,nt,-0.9,5.8,nt
CN(C(=O)CSc1nnc(C2CC2)n1-c1ccccc1)C1CCS(=O)(=O)C1 (centres undefined),4.8,2.1,1.1,i,5.7,-0.1,0.715
O=C(Nc1ccc(C(=O)N2CCOCC2)cc1)c1ccccc1[N+](=O)[O-],2.2,-0.7,-4.5,i,1.2,1.9,0.652
O=C(NNC(=O)c1ccccc1Cl)c1ccc2c(=O)n3c(nc2c1)CCC3,-9.4,-0.5,nt,i,0.4,5.3,0.669
O=C(CCCc1ccccn1)c1ccccc1,nt,-2.4,nt,i,2.2,-12.3,0.649
O=[N+]([O-])c1c(Nc2ccccc2O)cc(Cl)c2nonc12,1.7,0.8,69.6,i,12.2,105.3*,0.695
COCCN(C(=O)c1csnn1)C(C(=O)NC1CCCCC1)c1sccc1C (centres undefined),3.7,3.3,-13.6,nt,-1.9,5.7,0.667
Cc1nc(C)c(C(=O)N/N=C/c2cn(C)c3ccccc23)s1,-2.7,-1.0,8.7,nt,nt,5.6,nt
Cc1ccc(-c2cc(C(=O)Nc3cc(C)on3)no2)cc1,3.7,-1.2,-3.1,i,3.5,-2.3,0.706
COCCSc1ncnc2c1oc1nc3c(cc12)COC(C)(C)C3,0.6,2.9,-13.7,i,5.7,-2.2,0.672
COc1ccc(/C=N/NC(=O)c2ccccc2O)cc1Cn1cc([N+](=O)[O-])cn1,5.9,2.8,8.0,i,nt,-4.5,nt
CCCNC(=O)NC(=O)CSc1ccc2c(c1)OCCO2,-4.3,-0.6,-0.4,nt,2.4,4.1,0.72
CC(=O)N1CCCc2cc(S(=O)(=O)N3CCCC(C(=O)N4CCN(c5cccc(Cl)c5)CC4)C3)ccc21 (centres undefined),-2.0,-0.9,-2.6,i,2.5,6.6,0.698
NC(=O)N/N=C/c1cc(Br)ccc1OC(=O)c1ccccc1,-0.5,-0.1,-3.7,i,nt,-2.2,nt
COc1cc(/C=C/C(=O)NNc2c(F)c(F)cc(F)c2F)ccc1OC(F)F,4.1,-2.1,25.9,nt,8.4,4.0,nt
O=[N+]([O-])c1ccccc1S(=O)(=O)Nc1cccc(-c2ccc(N3CCCC3)nn2)c1,nt,1.2,nt,i,3.1,3.0,0.657
O=C(N/N=C/c1sc(N2CCOCC2)nc1-c1ccccc1)c1ccccc1O,-3.2,3.5,17.4,nt,nt,13.1,nt
Cc1cccc(CSc2nnc(C)c(=O)n2N)c1,-4.5,-0.8,-5.0,nt,2.0,-1.6,0.65
Cn1ncc([N+](=O)[O-])c1C(=O)Nc1nc2ccccc2n1CCN1CCCCC1,-2.4,1.7,-7.3,nt,-0.1,-3.5,0.746
CNC(=O)c1snnc1-c1ccccc1,-1.8,0.4,32.3,nt,6.0,0.6,0.78
COc1cc(-c2nnc(NC(=O)c3ccco3)o2)cc(OC)c1OC,3.5,3.7,0.7,i,8.4,-2.8,0.576
COc1ccccc1CNC(=O)CSc1nn2c(=O)c(C(C)(C)C)nnc2s1,0.3,-0.6,8.9,i,1.0,-1.9,0.716
Cc1nn(CCc2n[nH]c(=S)n2C)c(C)c1Br,-4.9,3.6,93.8*,nt,2.4,-649.8,0.671
CCOc1ccc(-c2ncncc2-c2ccc(OC)cc2)c(O)c1,-1.0,0.7,nt,nt,1.9,8.2,0.693
Cc1ccc(NC(C(=O)c2ccccc2)c2ccccc2)cc1 (centres undefined),nt,4.7,nt,i,2.2,5.7,0.685
CC(=O)Nc1ccc(/C(C)=N/NC(=O)c2ccncc2)cc1,5.4,-3.6,-2.6,i,nt,5.5,nt
Nc1nc(-c2ccc3c(c2)OCCO3)cs1,-0.5,1.6,98.6*,nt,-0.6,-11.7,0.695
O=S(Cc1cc(Oc2ccccc2)nc(-c2ccccc2)n1)c1ccccc1 (centres undefined),0.5,1.3,-7.6,nt,3.9,7.2,0.753
CC1CCN(C(=O)COC(=O)c2ccc3c(c2)OCO3)CC1,2.5,1.8,-1.7,i,3.9,-4.0,0.704
CC(C)(CC(=O)O)CC(=O)NCc1c(Cl)cccc1Sc1ccc(Cl)cc1,0.3,1.9,3.4,i,5.3,-1.9,0.663
O=C1/C(=C\Nc2ccc(OC(F)(F)F)cc2)CCN1c1ncccn1,-6.1,5.6,-2.0,nt,1.6,0.7,0.765
Cc1ccc(NC(=O)COc2ccccc2)cc1Cl,-9.1,0.6,1.0,nt,-2.5,3.5,0.689
COc1ccc(S(=O)(=O)N2CCCCCC2)cc1C(=O)Nc1cc(C)ccn1,-0.3,-0.9,-1.1,i,-2.6,4.3,0.684
CCOc1ccc(NC(=O)CSc2nnc(-c3cc(C)[nH]n3)n2N)cc1,-2.1,1.4,-5.3,i,1.9,2.2,0.673
Cc1ccc(NC(=O)c2nc3nccc(C)n3n2)c(C)c1,2.3,1.4,-0.9,i,0.1,-12.5,0.699
CCC1c2ccc(C)n2CCN1C(=O)Nc1cc(Cl)ccc1OC (centres undefined),-1.8,3.7,-0.9,nt,-1.6,-6.9,0.659
CCOc1ccc(S(=O)(=O)NCCC(=O)Nc2ncccc2C)cc1,-3.5,-6.4,-1.5,i,4.4,8.3,0.712
NS(=O)(=O)c1ccc(Nc2c([N+](=O)[O-])cncc2[N+](=O)[O-])cc1,1.5,3.3,-52.2,i,9.4,-6.5,0.704
COC(=O)C1CCN(c2cnccn2)CC1,2.8,0.4,-5.1,i,-4.6,-3.0,0.699
Cn1nc(-c2ccc(Cl)cc2)c2cc(C(=O)NCCCN3CCCC3)sc21,-1.4,-0.9,93.7*,i,-169.7,9.3,0.741
NS(=O)(=O)c1ccc(CNC(=O)CCCSc2ccccc2)cc1,1.1,1.8,-12.6,i,1.2,1.1,0.647
COc1ccccc1NC(=O)NNC(=O)CCN1CCOCC1,6.9,2.3,-7.6,i,-2.5,4.4,0.696
COc1ccc(C2CC(=O)C=C(O)C2)cc1 (centres undefined),-1.4,1.5,2.8,i,-1.4,1.6,0.683
Cc1cc(C)c(S(=O)(=O)N2CCOC2CNC(=O)C(=O)NCCc2c[nH]c3ccccc23)c(C)c1 (centres undefined),1.4,-4.5,0.0,i,5.1,12.9,0.777
CCCC(=O)Nc1ncnc2c1ncn2[C@@H]1O[C@@H]2OP(=O)(O)OC[C@H]2[C@H]1OC(=O)CCC,-3.1,-0.2,-3.4,i,3.8,-6.4,nt
CCCCNc1nc2ccccc2n1CC(=O)N1CCc2ccccc2C1,1.3,-0.3,-18.4,nt,6.1,6.2,0.719
N#Cc1c(NC(=O)CN2CCOCC2)oc(-c2ccccc2)c1-c1ccccc1,-0.9,-0.9,98.7*,nt,-0.8,-7.1,0.733
CCN(CC)S(=O)(=O)c1ccc(NC(=O)C2c3ccccc3Oc3ccccc32)cc1,nt,-0.5,nt,nt,0.5,-0.3,0.62
COc1ccc(OC)c(NC(=O)CSC2=C(C#N)C(c3ccco3)C3=C(CCCC3=O)N2)c1 (centres undefined),-6.1,1.0,-6.7,nt,1.2,2.2,0.738
O=C(c1cc(=O)[nH]c2ccccc12)N1CCN(S(=O)(=O)c2ccc(Cl)cc2)CC1,-2.1,0.7,13.8,i,-3.7,14.6,0.662
CCn1c(SCc2nc3ccccc3[nH]2)nnc1-c1ccc(OC)cc1,-1.5,0.3,-15.7,nt,-0.4,-6.7,0.753

# Next section
SMILES,LANA-H2B inh,HNF4A DNA FP,ALR H2O2 inh,FGF22 binding,UCH37 DUB inh,B2AR ag,Ecoli growth
Cc1nc(NC(=O)CN2CCOCC2)sc1C(=O)N(C)C,-5.3,1.5,-10.9,i,4.4,6.2,0.674
CCc1ccc(CNc2ccc3c(c2)ncn3CC)cc1,6.2,-3.2,56.0,i,-11.2,0.6,0.593
CC(C)(C)NC(=O)CN(C(=O)C(=O)Nc1ccc2c(c1)OCCO2)C(C)(C)C,1.8,-3.4,-7.8,i,-3.4,-3.5,0.64
Cn1ncc(Br)c1C(=O)N1CCN(C(=O)c2ccco2)CC1,2.4,2.0,-16.4,nt,2.6,-2.9,0.678
CCOc1ccccc1NC(=O)Cn1nnc(C(=O)NCCc2ccc(OC)c(OC)c2)c1N,-1.1,-1.9,-2.8,i,1.6,2.5,0.663
CCOC(=O)C1C(C)=CC(=O)CC1c1ccco1 (centres undefined),-4.0,-0.4,-4.2,nt,-2.0,3.5,0.7
Fc1ccc(COc2ccc(-c3nnco3)cc2)c(Cl)c1,-8.5,3.3,1.0,i,3.4,-5.5,0.678
O=C(Nc1ccc(S(=O)(=O)N2CCOCC2)cc1)c1cccs1,-7.3,2.2,7.0,nt,5.1,-0.2,0.691
CCOC(=O)c1cc(C#N)c(N2CCN(C)CC2)nc1-c1ccccc1,1.2,-5.5,12.2,i,-2.1,-1.6,0.657
COCCOC(=O)C1=C(C)NC2=C(C(=O)CCC2)C1c1cc2c(cc1Br)OCO2 (centres undefined),-4.3,-4.3,-10.6,nt,-27.4,-11.7,0.659
CN(C)c1ccc(/C=C/C=N/Nc2nc(N3CCOCC3)nc(N3CCOCC3)n2)cc1,-3.0,2.5,nt,i,nt,4.3,nt
COc1cccc(NC(=O)CN(C)C(=O)c2cn(-c3ccccc3)nc2-c2cccs2)c1,-1.2,0.0,1.2,+,-0.4,10.4,0.697

# The closing 4 records of the part above lead into the next:
SMILES,LANA-H2B inh,HNF4A DNA FP,ALR H2O2 inh,FGF22 binding,UCH37 DUB inh,B2AR ag,Ecoli growth
CCOC(=O)c1cc(C#N)c(N2CCN(C)CC2)nc1-c1ccccc1,1.2,-5.5,12.2,i,-2.1,-1.6,0.657
COCCOC(=O)C1=C(C)NC2=C(C(=O)CCC2)C1c1cc2c(cc1Br)OCO2 (centres undefined),-4.3,-4.3,-10.6,nt,-27.4,-11.7,0.659
CN(C)c1ccc(/C=C/C=N/Nc2nc(N3CCOCC3)nc(N3CCOCC3)n2)cc1,-3.0,2.5,nt,i,nt,4.3,nt
COc1cccc(NC(=O)CN(C)C(=O)c2cn(-c3ccccc3)nc2-c2cccs2)c1,-1.2,0.0,1.2,+,-0.4,10.4,0.697
O=[N+]([O-])c1cc(C(F)(F)F)ccc1NCCCN1CCOCC1,-5.4,5.5,-2.4,i,5.4,-7.6,0.628
C[C@H](NC(=O)NCCc1ccccc1)C(=O)O,4.2,-0.8,1.6,nt,0.8,-0.2,0.778
O=C(/C=C/Nc1ccc(F)cc1F)c1ccco1,-0.4,-3.5,0.1,i,-1.0,-15.2,0.656
CC1(C)CC(=O)C2=C(C1)NC1=C(C(=O)c3ccccc31)C2c1ccc(O)cc1 (centres undefined),-2.0,0.6,nt,nt,6.1,-24.9,0.684

# Source: PubChem (several laboratories)

# This is a subset (hit frequency here may not be typical).
